# VDR inhibitor = Inhibitors of the vitamin D receptor (VDR): qHTS; AID 504847, 2011; Vitamin D3 receptor (Homo sapiens), P11473; Potency, µM, without a hit: max response, negative = inhibition, most hits filed as inhibitors; actives 0.93% (n = 400,000); VDR-SRC2-3 peptide fluorescence polarization, 2 h; active = well fitted inhibition curve with a large enough effect; inconclusive = small, poorly fitted or top-dose-only effect, or another doubt; inactive = no such curve, though single readings can be large or run the other way; note: series mostly up to about 120 µM
# Target sequence (P11473 whole entry, looked up): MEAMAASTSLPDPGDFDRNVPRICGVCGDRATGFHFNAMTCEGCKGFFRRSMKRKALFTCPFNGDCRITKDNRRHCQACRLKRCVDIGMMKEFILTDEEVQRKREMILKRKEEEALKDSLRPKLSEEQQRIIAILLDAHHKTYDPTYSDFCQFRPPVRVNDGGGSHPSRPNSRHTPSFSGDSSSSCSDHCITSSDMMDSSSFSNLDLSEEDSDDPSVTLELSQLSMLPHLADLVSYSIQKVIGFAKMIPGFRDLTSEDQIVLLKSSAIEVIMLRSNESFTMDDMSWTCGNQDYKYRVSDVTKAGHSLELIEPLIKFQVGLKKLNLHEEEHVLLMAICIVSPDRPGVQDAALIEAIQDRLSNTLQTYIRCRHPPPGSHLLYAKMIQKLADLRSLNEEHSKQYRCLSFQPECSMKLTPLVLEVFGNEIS
#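 VDR–SRC2-3 interaction, FP format. Cmpds 23 nl via pintool, brief spin, 2 h ambient incubation.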
# Numbers without * were called inactive; ? = inconclusive; & = joins results of further samples; [ ] = remark or other dose. % is set by controls: 0 for no effect and ±100 for the full control effect; potency is the fitted concentration of half-maximal effect.
SMILES,VDR inhibitor
O=C(c1ccc2c(c1)OCO2)N1CCN(CCN2C(=O)c3cccc4cccc(c34)C2=O)CC1,12%
COc1cccc(C2NC(=O)NC(C)=C2C(=O)OCC2CCCCC2)c1 (configuration not stated),?
Cc1ccc(Cn2nnnc2CN2CCC(c3nc4ccc(Cl)cc4[nH]3)CC2)cc1,-3%
CCN(C(=O)COc1ccccc1)C1CCCCC1,-9%
O=C1CCC(C(=O)N2CCC(CO)CC2)CN1Cc1ccc(Cl)cc1 (configuration not stated),-8%
CCCCCC[C@@H](O)C/C=C\CCCCCCCC(=O)O,-2%&-19%
Cc1cc(NC(=O)CCC(=O)N(CC(=O)NCC2CCCO2)c2ccccc2C)no1 (configuration not stated),-5%
COc1ccc(C2=NOC(C(=O)N3CCN(C(=O)c4ccco4)CC3)C2)cc1OC (configuration not stated),15%
O=c1cc(NS(=O)(=O)c2ccccc2)nc(SCc2ccc(Cl)cc2)[nH]1,11%
CCOC(=O)c1[nH]c(C)c(CCC(=O)O)c1C,0%&-9%
CCOC(=O)[C@@H]1[C@H]2COc3ccccc3[C@@H]2N2C(=O)N(c3cccc(C)c3)C(=O)[C@]12C,-16%
CCN(CC)S(=O)(=O)c1ccc(C)c(NC(=O)COc2ccc(Br)cc2Cl)c1,-10%
CC1C2C(c3ccccc3)N(C)C(=O)N(C)C2N(C)C(=O)N1C (configuration not stated),8%
Cc1cc(C)cc(NC(=O)Cn2c(C(F)(F)F)nc3ccccc32)c1,-19%
COc1ccc(C(=O)NNC(=O)c2ccncc2)cc1,-3%
NC1=NC[C@H](CC2CCCCC2)N1CCc1cc(C(F)(F)F)cc(C(F)(F)F)c1,-7%
CCN(CC)S(=O)(=O)c1ccc(N2CCCC2)c(NC(=O)C2=NN(c3ccccc3)C(=O)CC2)c1,80%[activator]
COc1cccc(C(CNC(=O)c2ccc(Cl)c(S(=O)(=O)N3CCCC3)c2)N(C)C)c1 (configuration not stated),7%
Cc1cc(C(=O)CN2C(=O)NC3(CCCCC3)C2=O)c(C)n1C,21%
CCn1nc(C)cc1C(=O)N1CCCC(N2CCN(c3ccccc3OC)CC2)C1 (configuration not stated),20%
Cc1ccc2nc(NCc3ccccc3)c(C#N)cc2c1,-6%
Cc1ccc(-n2nnnc2SCC(=O)NC(C(=O)O)(c2ccccc2)c2ccccc2)cc1C,-17%
COc1ccc(C)cc1NC(=O)NC(C)c1c(-n2cccc2)sc(C)c1C (configuration not stated),-5%
COC(=O)c1sccc1S(=O)(=O)N(CC(=O)NCc1ccc(C)cc1)c1ccc(C)c(C)c1,0%
O=C(Nc1ccccc1C(=O)O)c1ccc(NC(=O)C2CCCCC2)cc1,-9%
NC(=O)Cn1c(=O)n(CCCCCC(=O)NCc2ccccc2)c(=O)c2sccc21,10%
COC(=O)c1ccc(CSc2nc3c([nH]c4ccccc43)c(=O)n2-c2cccc(OC)c2)o1,7%
CS(=O)(=O)c1ccc(NC(=O)c2cccc(-n3cnnn3)c2)cc1,15%
CCOC(=O)c1ccc(N2C(=O)c3cccc4c(C(=O)O)ccc(c34)C2=O)cc1,4%
COc1cc(OC)c(NC(=S)NCc2ccccc2)cc1Cl,-9%

# A different layout for some results above.
compound | VDR inhibitor
CS(=O)(=O)c1ccc(NC(=O)c2cccc(-n3cnnn3)c2)cc1 | 15%
O=C(Nc1ccccc1C(=O)O)c1ccc(NC(=O)C2CCCCC2)cc1 | -9%
COc1cc(OC)c(NC(=S)NCc2ccccc2)cc1Cl | -9%

# Pulled one by one from above (two):
SMILES,VDR inhibitor
O=C(Nc1ccccc1C(=O)O)c1ccc(NC(=O)C2CCCCC2)cc1,-9%
COc1ccc(C)cc1NC(=O)NC(C)c1c(-n2cccc2)sc(C)c1C (configuration not stated),-5%

# (more compounds)
SMILES,VDR inhibitor
COc1ccccc1CNC(=O)C1CC2Cn3c(nc4cc(Cl)c(Cl)cc43)C2N1C (configuration not stated),-9%
CC1(c2ccccc2)CC2CC(c3ccccc3)N1O2 (configuration not stated),3%
O=C(COC(=O)c1cccnc1Cl)NCCC1=CCCCC1,-1%
CC1CC(C)CN(C(=O)COC(=O)/C=C/c2ccco2)C1 (configuration not stated),-19%
CC(=O)c1cnc2c(-c3ccc(Cl)cc3)c(C)nn2c1C,-14%
O=C(Nc1nc(-c2ccc(F)cc2)cs1)c1cccc(N2C(=O)CCC2=O)c1,4%
Oc1ccc(-n2nnnc2SCc2ccccc2Br)cc1,-12%
O=C(CSCc1cccs1)N1CCCC1,4%
Cc1ccc(-c2c(C(=O)N3CCN(c4cccc(C)c4)C(C)C3)oc(=O)c3ccccc23)cc1 (configuration not stated),-6%
Cc1cc(C)c2c(n1)SCC(=O)N2CC(=O)Nc1ccc(Br)c(C)c1,-13%
O=C(O)CSc1nnc(-c2cccc(S(=O)(=O)N3CCOCC3)c2)n1-c1cccc(Cl)c1,0%
Cc1ccc(CN2C(=O)C(CC(C)C)Nc3ncnc(N4CCN(c5ccccn5)CC4)c32)cc1 (configuration not stated),-12%
COc1ccc(NC(=O)c2ccc(-n3cncn3)c([N+](=O)[O-])c2)cc1,1%
Cc1cccc(C(=O)N2CCc3cc(CNC(=O)COc4ccc(Cl)cc4)ccc32)c1,20%
COc1ccc(S(=O)(=O)Nc2c(C(=O)O)[nH]c3ccc(OC)cc23)cc1,-8%
COc1ccc(OC)c2sc(N3CCN(C(=O)C4COc5ccccc5O4)CC3)nc12 (configuration not stated),4%
COc1ccc(S(=O)(=O)Nc2ccccc2C(=O)NC2CC2)cc1NC(C)=O,4%
C=CCn1cc(C(=O)OCC)c(=O)c2ccc(F)cc21,-9%
CSCCC(NS(=O)(=O)c1ccc(Cl)cc1)C(=O)OCC(=O)N(C(C)C)C(C)C (configuration not stated),8%
CC1CCN(C(=O)C2CCN(S(=O)(=O)c3cccnc3)CC2)CC1,-8%
Cc1cn2c(=O)cc(COc3cccc(NC(=O)c4cccc(F)c4)c3)nc2s1,-5%
CCc1c(C)sc(NC(=O)c2cccs2)c1C(=O)OC(C)C,15%
CCOc1ccc(N(CC)S(=O)(=O)N2CCCC(C(=O)Nc3ccc(OC)c(OC)c3)C2)cc1 (configuration not stated),6%
c1ccc(-c2ccc(-c3nc(-c4ccncc4)no3)cc2)cc1,13%
O=C(NN=Cc1ccccc1O)c1cccc([N+](=O)[O-])c1,-2%
O=C(CCc1ccccc1)NNC(=O)COc1ccc(Cl)cc1,-17%
COc1ccc2c(c1)C=C(C(=O)OCc1cccnc1)CO2,9%
Cc1cccnc1Nc1nc(-c2ccc(O)c(O)c2)cs1,-24%
CN(C)CC(C)(C)CN=Cc1c(O)[nH]c2ccccc12,-14%
COC(=O)c1nnn(CC(=O)NC(=O)Nc2cccc(Cl)c2C)c1C(=O)OC,3%

# Reformatted with tabs: entries from further up
SMILES	VDR inhibitor
COc1ccc(S(=O)(=O)Nc2ccccc2C(=O)NC2CC2)cc1NC(C)=O	4%
COC(=O)c1ccc(CSc2nc3c([nH]c4ccccc43)c(=O)n2-c2cccc(OC)c2)o1	7%
CCCCCC[C@@H](O)C/C=C\CCCCCCCC(=O)O	-2%&-19%
CC1CC(C)CN(C(=O)COC(=O)/C=C/c2ccco2)C1 (configuration not stated)	-19%
COc1ccc(OC)c2sc(N3CCN(C(=O)C4COc5ccccc5O4)CC3)nc12 (configuration not stated)	4%
CS(=O)(=O)c1ccc(NC(=O)c2cccc(-n3cnnn3)c2)cc1	15%

# Next entries.
SMILES,VDR inhibitor
C=CCn1c2ccccc2c2nnc(SCC(=O)O)nc21,-12%
CS(=O)(=O)Nc1ccc(C(=O)Nc2ccc3c(c2)OCCO3)cc1,1%
CC(=O)N(C1=C(N)C(=O)c2ccccc2C1=O)C(C)C,4%
CN(C)c1ccc(C(CNC(=O)c2ccc(C#N)cc2)c2c[nH]c3ccccc23)cc1 (configuration not stated),8%
C=CCNc1nc2c(c(=O)n(C)c(=O)n2C)n1CC(=C)C,6%
O=C(NC1CCCC1)C(c1ccccn1)N(C(=O)c1csnn1)c1ccccc1Cl (configuration not stated),-8%
CC1(CCOCc2ccccc2)NC(=O)NC1=O (configuration not stated),8%
O=C1CN(C(=O)COc2ccccc2F)c2ccccc2N1,-13%
O=C(CN1CCCC1)N/N=C/c1ccc(-c2cccc(Cl)c2)o1,-1%
Cc1nn(CCCC(=O)NCc2ccccc2)c(=O)c2nccn12,-7%
O=C(NCC1CC1)c1onc(CSc2ccccc2)c1C(=O)NCC1CC1,-5%
Cc1cc(NS(=O)(=O)c2ccc(NC(=O)C3CCCCC3)cc2)no1,-12%
CC(Oc1ccc(F)cc1)C(=O)NN (configuration not stated),-4%
CCN1C(=O)C(O)(c2c(C)[nH]c3ccccc23)c2ccccc21 (configuration not stated),?
Cn1cnc([N+](=O)[O-])c1Nc1ccc(O)cc1,-6%
CCN(CC)CCCNC(=O)c1sc2nc3n(c(=O)c2c1C)CCCCC3,7%
Cc1ccc(S(=O)(=O)Nc2cc3c(C(=O)O)c(C)oc3c3ccccc23)c(C)c1,-8%
CCC(C(=O)OCC(=O)Nc1ccc(C)c(S(=O)(=O)N2CCOCC2)c1)c1ccccc1 (configuration not stated),17%
O=C1c2[nH]nc(-c3ccccc3O)c2C(c2cccc(OCc3ccccc3)c2)N1CCO (configuration not stated),5%
COC(=O)c1cc2sc(Cl)cc2n1Cc1cc(C)ccc1C,-11%
CN(C)S(=O)(=O)N1CCC(Oc2ccc(C(=O)NC3CCOC(C)(C)C3)cc2)CC1 (configuration not stated),-1%
COc1ccc(C(=O)Nc2cc(C)c(NC(=O)c3ccccc3OC)cn2)cc1,8%
COCCNC(=S)N/N=C(\C)c1ccc(Cl)c(Cl)c1Cl,-11%
CCN1CCCc2cc(CN(CCN3CCOCC3)C(=S)Nc3ccc(C)cc3)ccc21,3%
Cc1ccc2[nH]c(C(=O)Nc3ccccc3)cc2c1,9%
Cc1ccc(NC(=O)Nc2nnc(Cc3ccc([N+](=O)[O-])cc3)s2)cc1C,-6%
COC(=O)[C@@H]1CC2=CC(=O)CC[C@]2(C)[C@@]23O[C@@H]2C[C@@]2(C)[C@@H](CC[C@@]24CCC(=O)O4)[C@H]13,4%
C1=CCC(/C=N/n2cnnc2)CC1 (configuration not stated),-1%
C=CCn1c(SCC(=O)Nc2ccc(N(C)C)cc2)nnc1-c1cccc(C)c1,89µM*
COCC(=O)Nc1nnc(COc2ccc(Cl)cc2)s1,0%
CCn1c(=O)c(-c2ccccc2)c(O)c2ccccc21,-10%
O=C(CCNC(=O)c1ccccc1Cl)OCC(=O)c1ccccc1,-18%
CCOC(=O)c1cnn(-c2nc(-c3cccc(F)c3)cs2)c1C(F)(F)F,13%
Cc1ccc(OCC(O)Cn2c(N3CCCCC3)nc3c2c(=O)[nH]c(=O)n3C)cc1C (configuration not stated),-3%
CCCc1nc2sc3c(c2c(=O)n1NC(=O)CCCl)CCCC3,2%
COc1ccc(CCC(=O)Nc2cc(S(=O)(=O)N3CCOCC3)ccc2OC(C)C)cc1,3%
CCOc1ccc(N2C(=O)CC(SCCN)C2=O)cc1 (configuration not stated),-8%
O=C(NC1CCCC1)C(c1ccccc1)N(Cc1ccco1)C(=O)Cc1cccs1 (configuration not stated),-13%
N#C/C(=C\c1c(N2CCCCCC2)nc2ccccn2c1=O)C(=O)NCc1ccco1,-3%
COc1ccc2c(c1)cc(C(=O)N[C@@H](CCSC)C(=O)N1CCC(C(=O)O)CC1)n2C,-10%
COc1cc(NS(=O)(=O)c2ccc(N/C=C(\C=O)c3nc4cc(Cl)ccc4o3)cc2)nc(OC)n1,-2%
COc1cc2c(cc1OC)CN(C(=O)c1ccc(N3CCCC3)c([N+](=O)[O-])c1)CC2,8%
COc1cc(C(C)=O)ccc1OCC(=O)c1cc(C)n(C2CC2)c1C,5%
O=C(O/N=C1\C(=O)N(c2ccccc2)c2ccccc21)C1CC1,-16%
c1ccc(Oc2cccc(OCCCCSc3ncccn3)c2)cc1,-7%
c1ccc(-n2c(-c3ccncc3)nnc2-c2ccco2)cc1,-7%
CNC(=O)c1ccccc1-c1ccccc1,-2%
COc1ccccc1C(CCN(Cc1ccccc1)C(C)=O)c1ccco1 (configuration not stated),-16%
Cc1ccccc1N(CC(=O)NCC1CCCO1)C(=O)CNS(=O)(=O)c1ccc(F)cc1 (configuration not stated),-23%
COC(=O)c1ccccc1S(=O)(=O)Oc1ccc(-c2ccc(C(=O)O)cc2)cc1,-8%

# 4 entries from above, field by field.
structure: Cc1cccnc1Nc1nc(-c2ccc(O)c(O)c2)cs1
  VDR inhibitor: -24%
structure: CN(C)CC(C)(C)CN=Cc1c(O)[nH]c2ccccc12
  VDR inhibitor: -14%
structure: COC(=O)c1nnn(CC(=O)NC(=O)Nc2cccc(Cl)c2C)c1C(=O)OC
  VDR inhibitor: 3%
structure: C=CCn1c2ccccc2c2nnc(SCC(=O)O)nc21
  VDR inhibitor: -12%

# Additional entries follow.
SMILES,VDR inhibitor
CCOC(=O)N1CCN(C(=O)c2ccc(Cl)c(NC(=O)c3cccs3)c2)CC1,4%
CC(=O)N/C(=C\c1ccccc1)C(=O)OCc1ccc(F)cc1,2%
CCn1c(SCC(=O)Nc2ccc(C(=O)OC)cc2)nc2cccnc21,-8%
CCCC(C(=O)NCc1ccco1)N(C(=O)CNS(=O)(=O)c1ccccc1)c1ccc(OC)cc1 (configuration not stated),-16%
CCOc1ccc(-c2nnn(CC(=O)Nc3cc(OC)cc(OC)c3)n2)cc1OCC,10%

# These rows are one share of the data, so the mix of outcomes need not match the whole.
